Beta apoptosis: inhibitors of cytokine-induced beta cell apoptosis, primary screen, luminescence; INS-1E cytokine-induced death, ATP luminescence, 48 h; percent of positive-control rescue, neutral wells zero; protection from apoptosis, % (test concentration not listed); hit rate 0.8% among 300,000; AID 435005, 2010;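 active = all replicates at 75% or more, or half of them and the mean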;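 note: 0% = cytokine-treated negative control wells and 100% = positive control rescue; higher means more ATP so stronger rescue from cytokine killing; wells of about 40 µL received 100 nL stock; the first replicate is given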
rRNA inh HTS: reduced GFP signal of wild-type E. coli, primary screen, bacterial rRNA inhibitor project, GFP/RFP fluorescence, OD600, single point | E. coli WT GFP vs humanized-ribosome RFP mutants, 24 h; stronger effect = lower value; DMSO median 0, no signal -100 | GFP signal change (wild-type ribosome), % (no concentration beside the values) | hit rate 1.6% among 350,000;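 active = significant combined selectivity score with lowered wild-type GFP, culture density cut under 30%, mutant RFP and density less affected; inactive = any of these conditions unmet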; note: one replicate is shown; some compounds called inactive have numbers as strong as hits
T cruzi inh: inhibitors of intracellular T. cruzi growth, primary screen, luminescence, NIH3T3 host cells; T. cruzi beta-gal in NIH3T3, 90 h; hit rate 1.4% among 300,000; inhibition, % (concentration not given with the values); AID 1885, 2009;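 active = mean inhibition across valid replicates above about 55%, limit read from the data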;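 note: signal also drops with host cell toxicity which is not excluded here; 0% = plate median of DMSO wells and 100% = zero luminescence signal; higher percent means less beta-gal luminescence so fewer parasites; stock transfer was 50 nL into about 50 µL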
Bfl-1 A1 inh: caspase 3/7 activation in MEF A1-2A-BIM cells, primary screen, A1 inhibitor project, cell-based, luminescence, HTS | Caspase-Glo 3/7 luminescence, 3 h; percent of clofoctol response, vehicle zero | caspase activation, % (no concentration beside the values) | hit rate 0.066% among 330,000 | AID 2462, 2010;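 active = over half of replicate activation scores above 10%, or exactly half above 10 with the replicate mean above 10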;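 note: wells of about 30 µL received 50 nL stock; many hits fall short of the cut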
AF4-AF9 inh: inhibitors of AF4 peptide binding to AF9, primary screen, biochemical, AlphaScreen, biotin-AF4 peptide, FLAG-AF9, single point. Protein AF-9 (Homo sapiens), P42568. inhibition, % at 10 µM. hit rate 0.47% among 350,000;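 active = every replicate reaching a set inhibition limit, whatever the replicate mean, cut at about 25% in these data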;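 note: 0% = plate neutral control median and 100% = total signal loss; the record names both 10 and 1 µM as test concentration; the first replicate is given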
Target sequence (P42568 whole entry, looked up): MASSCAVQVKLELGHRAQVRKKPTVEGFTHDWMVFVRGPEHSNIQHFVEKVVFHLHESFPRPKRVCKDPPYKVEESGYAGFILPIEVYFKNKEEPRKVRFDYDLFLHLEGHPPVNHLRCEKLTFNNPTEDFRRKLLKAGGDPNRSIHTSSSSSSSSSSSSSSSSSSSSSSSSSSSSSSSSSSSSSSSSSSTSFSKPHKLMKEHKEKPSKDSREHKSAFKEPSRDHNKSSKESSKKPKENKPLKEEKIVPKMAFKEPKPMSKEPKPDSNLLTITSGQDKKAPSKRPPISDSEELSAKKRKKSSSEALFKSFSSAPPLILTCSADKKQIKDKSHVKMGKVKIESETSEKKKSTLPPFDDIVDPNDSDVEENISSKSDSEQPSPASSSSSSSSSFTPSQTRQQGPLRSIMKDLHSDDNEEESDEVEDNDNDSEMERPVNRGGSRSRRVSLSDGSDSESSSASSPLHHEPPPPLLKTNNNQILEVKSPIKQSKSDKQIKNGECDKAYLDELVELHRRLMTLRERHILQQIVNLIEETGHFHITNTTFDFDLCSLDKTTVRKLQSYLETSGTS
UCH37 DUB inh: inhibitors of human UCH37 deubiquitinase, primary screen, biochemical, Ub-AMC cleavage, fluorescence; Ubiquitin carboxyl-terminal hydrolase isozyme L5 (Homo sapiens), Q9Y5K5; purified proteasome/UCH37; inhibition, % (no concentration beside the values); hit rate 0.33% among 330,000; AID 588478, 2011;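 active = mean of two replicates above 20%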;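 note: 0% = compound-free wells with enzyme and 100% = wells lacking proteasome; stock transfer was 100 nL into about 20 µL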
Target sequence (Q9Y5K5 whole entry, looked up): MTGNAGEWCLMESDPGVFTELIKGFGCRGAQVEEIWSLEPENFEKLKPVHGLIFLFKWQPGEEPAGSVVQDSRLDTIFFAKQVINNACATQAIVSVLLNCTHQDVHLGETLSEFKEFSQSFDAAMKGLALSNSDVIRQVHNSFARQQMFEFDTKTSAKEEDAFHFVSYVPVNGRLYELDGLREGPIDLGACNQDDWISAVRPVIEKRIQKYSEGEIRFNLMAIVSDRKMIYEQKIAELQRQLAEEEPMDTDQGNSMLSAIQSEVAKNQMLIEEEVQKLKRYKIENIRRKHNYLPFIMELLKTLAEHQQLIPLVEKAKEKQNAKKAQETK
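Material: Human UCH37 enzyme supplied as purified proteasome complex | Schedule: 30 min preincubation with enzyme, 25 min cleavage at room temperature | Detection: AMC fluorescence 355/460 nm | Measure: % inhibition of Ub-AMC cleavage fluorescence | Controls: Wells without proteasome as full block, compound-free enzyme plus substrate as uninhibited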
FGF22 binding: binders of human FGF22 protein, primary screen, FGF22 synaptogenesis inhibitor project, biophysical, thermal shift, single point; Fibroblast growth factor 22 (Homo sapiens), Q9HCT0; recombinant FGF22 thermal shift, SYPRO orange fluorescence; percent of sucrose octasulfate shift, DMSO zero; calls only at 9.99 µM; hit rate 1.5% among 340,000; AID 651658, 2012;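 active = melting point raised past a set limit in the mean and every replicate; three in four hits are not shown here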
Target sequence (Q9HCT0 whole entry, looked up): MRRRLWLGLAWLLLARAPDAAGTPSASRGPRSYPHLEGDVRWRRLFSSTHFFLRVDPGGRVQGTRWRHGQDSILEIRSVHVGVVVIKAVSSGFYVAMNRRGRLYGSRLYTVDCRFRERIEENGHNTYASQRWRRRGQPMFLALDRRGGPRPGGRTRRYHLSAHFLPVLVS
Ecoli growth: E. coli growth inhibition, primary screen, OD600; Escherichia coli growth, 23 h; stronger effect = lower value; OD600 absorbance (concentration not given with the values); hit rate 0.21% among 330,000; AID 1053175, 2014;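 active = OD600 absorbance below the run mean of sample wells minus 3.6 SD, in any replicate, cut at about 0.56 in these data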;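 note: stock transfer was 300 nL into about 60 µL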
rRNA inh HTS OD600: recorded beside rRNA inh HTS, whose call it bears; OD600 change, %; measured here: OD600 growth;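 optical density of the mix in the first replicate; 0 = DMSO median and -100 = no signal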
rRNA inh HTS RFP: recorded beside rRNA inh HTS, whose call it bears; RFP signal change, %; measured here: RFP humanized mutant strains;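 first replicate; 0 = DMSO median and -100 = no signal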
Numbers without * were called inactive; i = inactive; . = no result given.

Structure	Beta apoptosis	rRNA inh HTS	rRNA inh HTS OD600	rRNA inh HTS RFP	T cruzi inh	Bfl-1 A1 inh	AF4-AF9 inh	UCH37 DUB inh	FGF22 binding	Ecoli growth
CCOC(=O)c1[nH]c(C)c(C(=O)N2CCOCC2)c1C	-7	3	4	-0.2	-19	-0.1	-2.7	3.4	i	0.77
CC(C)C1COC(c2cccn2Cc2ccccc2Cl)=N1 (centres undefined)	-12	3	9	1.3	-12	2.2	-2.9	0.8	i	0.68
O=C(CSc1nnnn1-c1ccc(O)cc1)Nc1cccc(S(=O)(=O)N2CCCC2)c1	-1	.	.	.	-6	-0.3	.	5.4	.	0.68
COc1ccc(OC)c(NC(=O)C2CCCN(S(=O)(=O)c3c(C)noc3C)C2)c1 (centres undefined)	1	.	.	.	5	0.0	.	3.0	.	0.71
COc1ccc(CNC(=O)/C=C/C(=O)O)cc1OC	3	.	.	.	-6	1.2	.	1.2	.	0.66
O=C(COC(=O)COc1cccc(C(F)(F)F)c1)NC1CCS(=O)(=O)C1 (centres undefined)	-5	10	5	-1.5	-8	-1.2	0.1	0.4	i	0.69
c1ccc(C(NCCNC(c2ccccc2)c2ccccc2)c2ccccc2)cc1	15	9	6	-1.6	24	-0.5	-8.5	2.5	i	0.67
Cc1ccc(SCCC(=O)Nc2ccccc2C(=O)NC(C)C)cc1	-18	.	.	.	-7	0.2	.	0.8	.	0.68
C1CCCCCC2(CCCCC1)OCC(CN1CCOCC1)O2 (centres undefined)	-1	.	.	.	-2	-0.6	.	5.2	.	0.67
CCCCCc1nc2c(C#N)c(-c3ccc(Cl)cc3)ccn2n1	.	.	.	.	50	1.1	.	-7.9	.	0.68
COc1ccc(/C=N/N2CCOCC2)cc1Cn1nc(C)c([N+](=O)[O-])c1C	-10	14	-2	1.2	11	0.2	5.1	.	i	.
CC(C)c1nc(SCC(=O)N2CCCC2)c2c(=O)n(C)c(=O)n(C)c2n1	1	-1	3	1.1	-5	-0.2	-4.6	4.3	i	0.69
COc1ccc2c(c1)cc1n2CCN=C1NCCO	-8	.	.	.	-6	0.4	.	-46	.	0.68
Cc1ccc(-c2nc(C)sc2CC(=O)OCC(=O)Nc2c(F)cccc2F)cc1	-13	.	.	.	1	0.0	.	3.5	.	0.7
CCc1ccc(NC(=O)c2cnn3ccccc23)cc1	-2	-10	-5	1.2	-17	-8.6	-6.0	3.2	i	0.7
CCCNC(=O)c1ccc(N2CCC3(CC2)CC(c2ccccc2)=NO3)c(NC(=O)c2ccc(Br)cc2)c1	4	13	19	-4.1	21	2.3	-0.5	-1.0	i	.
COc1ccc(C(=O)CN2C(=O)NC3(CCCCCC3)C2=O)cc1	-1	4	3	0.6	14	-0.3	1.2	-0.7	i	0.7
N#CCCN(C(=O)COC(=O)COc1ccccc1Cc1ccccc1)c1ccccc1	-3	0	-9	0.7	.	-0.2	-2.2	1.5	i	0.69
O=C(CNS(=O)(=O)c1ccc([N+](=O)[O-])cc1)N/N=C/c1ccc(O)cc1O	45	5	-1	-5.2	-27	1.1	-1.5	.	i	.
COc1cc2c(cc1O)CC[n+]1cc3c(OC)c(OC)ccc3cc1-2	-1	18	21	-11	5	1.0	-7.1	7.5	i	0.69
CC(=O)c1cccc(NC(=O)C(C)OC(=O)c2ccc3ncsc3c2)c1 (centres undefined)	-1	-11	-24	-1.4	.	1.3	-1.4	1.2	i	0.67
O=C(O)CC(C(=O)O)N1C(=O)/C(=C/C=C/c2ccco2)SC1=S (centres undefined)	8	17	1	12	-1	-0.3	-9.7	21*	i	0.7
Cn1nccc1C(=O)Oc1ccc(/C=N/NC(=O)c2ccccc2O)cc1	4	9	6	1.4	-18	-4.4	-1.8	.	i	.
COc1cc(OC)cc(N(C(=O)c2ccco2)C(C(=O)NC2CCCC2)c2ccc(N3CCOCC3)cc2)c1 (centres undefined)	1	-3	1	-2.5	4	1.0	0.8	4.6	i	0.67
CC1CCN(C2CCN(S(=O)(=O)c3ccc(F)cc3)CC2)CC1	-7	.	.	.	12	0.4	.	-0.3	.	0.67
CCN(Cc1ccc(C#CCCO)cc1)CC1CCCN(CCc2cccc(OC)c2)C1 (centres undefined)	.	0	-5	2.4	42	0.1	9.2	3.1	i	0.63
COc1ccc(/C=C/C(=O)c2ccoc2)cc1	0	-9	-3	0.1	-6	-1.3	.	2.1	.	0.66
CC(C(=O)Nc1cc(C(F)(F)F)ccc1N1CCOCC1)N1C(=O)C2CCCCC2C1=O (centres undefined)	-4	0	4	0.9	.	-0.1	-0.6	-2.5	i	0.71
COC(=O)c1ccc(CSc2nc3c(cnn3-c3ccc(C)cc3)c(=O)[nH]2)o1	.	.	.	.	3	1.2	.	2.4	.	0.72
CCS(=O)(=O)N1CCC(C(=O)NCc2ccco2)CC1	.	.	.	.	2	0.4	.	1.8	.	0.71

(continued)
Structure	Beta apoptosis	rRNA inh HTS	rRNA inh HTS OD600	rRNA inh HTS RFP	T cruzi inh	Bfl-1 A1 inh	AF4-AF9 inh	UCH37 DUB inh	FGF22 binding	Ecoli growth
O=C(CNC(=O)c1cccc(Br)c1)N/N=C/c1cccnc1	1	0	4	-4.5	-6	2.1	-1.7	.	i	.
CCN(CC)C(=O)C1=C(C)NC(=O)NC1c1c(F)cccc1Cl (centres undefined)	-3	.	.	.	-13	-0.3	.	2.1	.	0.64
Cn1c(=O)n(C)c2cc(S(=O)(=O)Nc3ccccc3C(=O)O)ccc21	.	5	-1	-1.1	-4	0.7	-0.4	-0.1	.	0.67
CCOC(=O)N1CCN(S(=O)(=O)c2ccc3[nH]c(=O)sc3c2)CC1	-3	.	.	.	-34	0.5	.	3.8	.	0.76
C#CC[N+]1(CC#Cc2ccc(C)cc2)CCCCC1	13	4	-2	-1.6	-20	0.4	-0.6	0.5	i	0.67
COc1ccc(CCNC(=O)c2cc(S(=O)(=O)N3CCCCC3)c[nH]2)cc1OC	-3	-3	-6	-0.1	-8	1.1	-6.7	5.6	i	0.7
CCc1c(O)cc2n(c1=O)-c1ccccc1C2(C)C	0	.	.	.	0	0.4	.	1.9	.	0.65
CCN1CCN(C(=O)c2cc(COc3ccc(F)cc3F)on2)[C@@H](C)C1=O	1	-1	5	0.5	-24	0.2	-7.2	3.4	i	0.69
CC12C(=O)N(c3ccccn3)C(=O)C1C1C=CC2C1 (centres undefined)	-1	14	20	1.7	-17	-0.4	-2.1	0.9	i	0.69
CCN(CC(=O)NCc1cccs1)C(=O)CN(C)S(=O)(=O)c1ccc(C)cc1	-12	4	5	0.8	1	1.2	-2.1	2.7	i	0.68
COc1ccc(CNC(=O)CCCn2nc(C)n3ccnc3c2=O)cc1	0	3	4	4.0	9	-0.3	-2.9	3.1	i	0.68
CC(C)(C)n1nc2c(c1NC(=O)CCCc1ccccc1)CS(=O)C2 (centres undefined)	.	3	3	-3.7	-6	0.3	6.6	1.6	i	0.75
Cc1ccc2cccc(NC(=S)NC(=O)c3ccnn3C)c2n1	8	.	.	.	-1	-0.4	.	3.3	.	0.65
Cc1ccc(N2C(=O)c3ccc(C(=O)N4CCN(Cc5ccccc5)CC4)cc3C2=O)cc1	-1	6	1	6.0	-12	0.8	-29	0.1	i	0.65
O[C@@H]1CN(Cc2ccc(-n3cccn3)cc2)CC[C@H]1N1CCN(c2ccccc2F)CC1	51	6	-2	0.0	21	-1.4	0.8	5.3	i	0.69
Oc1ccc(Cl)cc1CNCc1ccc(Cl)nc1	5	2	-3	-5.4	.	-0.7	-0.3	0.1	i	0.6
CCCCOC(=O)Cn1c(=O)oc2ccc(C)cc21	-8	4	-11	-4.3	-9	0.2	0.5	2.6	i	0.78
O=C(Nc1nc2ccccc2s1)c1ccc(F)cc1	.	10	17	-0.5	9	-8.7	0.0	2.9	i	0.68
CCOC(=O)C1CCCN(C/C=C/c2ccccc2)C1 (centres undefined)	-10	10	10	2.2	0	1.8	-1.6	-0.4	i	0.69
C=CCNC(=O)COc1ccc(Oc2ccccc2)cc1	-6	-15	-17	-4.0	2	-0.3	-1.8	1.3	i	0.71
Cc1ccc(C(=O)NCC(=O)OCC(=O)c2ccc(C)c([N+](=O)[O-])c2)cc1	.	.	.	.	-13	0.4	.	1.4	.	0.71
Cc1csc(NC(=O)c2ccc(C)s2)n1	-1	6	2	-0.1	-15	-6.0	0.0	3.9	i	0.69
Cc1nc(C)c(C(=O)OCC(=O)NCc2ccccc2Cl)s1	-1	11	4	3.5	.	-0.6	6.0	4.4	i	0.68
O=C(NCCCn1ccnc1)C(Cc1ccc([N+](=O)[O-])cc1)N1C(=O)c2ccccc2C1=O (centres undefined)	4	.	.	.	-1	0.2	.	5.4	.	0.7
COCc1cc(N2CCCC2)nc(-c2ccccc2)n1	.	10	3	-1.5	13	-0.5	-1.6	3.3	i	0.68
Cc1oc2ccc(NS(=O)(=O)c3ccc(C(C)(C)C)cc3)cc2c1C(=O)Nc1ccccc1	7	.	.	.	24	-0.3	.	3.3	.	0.71
COc1ccccc1/C=C(/NC(=O)c1ccccc1)C(=O)NCCCn1ccnc1	-2	8	13	-1.3	-10	-0.1	0.3	2.0	i	0.62
Cc1cc(=O)n(CC(=O)NC2CC2)c2c1c(C)nn2-c1ccccc1	-3	.	.	.	4	0.4	.	1.1	.	0.68
CCCN(CC(=O)Nc1ccccc1C)C(=O)c1ccc(N2CCCC2)c([N+](=O)[O-])c1	-1	-11	-12	-1.9	-2	0.0	2.5	4.1	i	0.73
Cc1cccc(NC(=S)NCc2ccc(F)cc2)c1	-6	0	0	-1.2	1	-0.5	3.5	3.1	i	0.6

(further entries)
Structure	Beta apoptosis	rRNA inh HTS	rRNA inh HTS OD600	rRNA inh HTS RFP	T cruzi inh	Bfl-1 A1 inh	AF4-AF9 inh	UCH37 DUB inh	FGF22 binding	Ecoli growth
CC1CCN(C(C(=O)Nc2ccc3c(c2)OCO3)c2ccccc2)CC1 (centres undefined)	.	-1	-31	-1.2	7	1.3	52*	1.6	i	0.77
CCn1c(CSCc2ccc(C)cc2)nnc1SCC(=O)NCc1ccccc1	-3	.	.	.	4	0.8	.	0.8	.	0.76
CC(=O)c1ccc(NC(=O)c2ccc(CSc3ccccc3)o2)cc1	-2	-31*	-19*	8.6*	-13	0.5	-2.5	5.9	i	0.66
COc1ccc(C(=O)OCC(=O)c2c[nH]c3ccccc23)c(OC)c1	-7	-6	-9	-0.8	.	-3.6	-5.7	-2.9	i	0.68

Not all compounds are listed. The share of hits here may be higher or lower than overall.
